Ab BasE inh: BasE siderophore enzyme inhibitors, primary screen, biochemical, Acinetobacter baumannii ATCC 17978, fluorescence polarization. purified BasE, fluorescence polarization binding displacement. AID 485350, 2010. inhibition, % (test concentration not listed). hit rate 0.1% among 84,000;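 active means both replicates above 25% with normal brightness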;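 further: 0% = negative plate control signal and 100% = positive plate control signal; stock transfer was 100 nL into about 30 µL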
KSHV LANA nucl: inhibitors of KSHV LANA-nucleosome binding, primary screen, biochemical, fluorescence polarization, FITC-LANA1-23, chicken nucleosomes. FITC-LANA1-23 / chicken nucleosome fluorescence polarization; hits give low values. z-score (test concentration not listed). hit rate 0.3% among 51,000;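 active means both repeat wells score below -2 in polarization z-score versus plate sample wells, excluding overly bright wells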;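 further: 100 nL library stock added to about 30 µL; numbers are from one replicate; some results filed as inactive read as strong as hits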
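System – purified chicken nucleosomes with FITC-labelled LANA N-terminal peptide (1-23) · Amount – 240 nM purified chicken nucleosomes (480 nM peptide binding sites), final · Also added – 50 nM FITC-LANA1-23 probe · Medium – TEN-BT buffer, pH 7.5 · Incubation – compound with peptide–nucleosome mix 10–45 min at room temperature · Detection – fluorescence polarization, ex 480 nm, em 535 nm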
The depositor's hits bear a star; · = no result given.

SMILES | Ab BasE inh | KSHV LANA nucl
O=C(Cc1ccccc1)NC1CCS(=O)(=O)C1 (configuration not stated) | -3.2 | 2.14
COc1ccc(N(C(=O)c2ccccc2)S(=O)(=O)c2ccc(Cl)cc2)cc1 | -0.6 | ·
COC(=O)CN1C=C(C(=O)OC)C(c2cccc(Cl)c2)C(C(=O)OC)=C1 | 5.1 | -0.363
c1ccn2c(CNC3CC4CC3C3CCCC43)nnc2c1 (configuration not stated) | 0.8 | ·
C=C1C[C@]23C[C@@]1(O)CC[C@H]2[C@@]12C=C[C@H](O)[C@@](C)(C(=O)O1)[C@H]2[C@@H]3C(=O)O | -3.9 | 2.04
COc1ccc(Cc2nnc(C(=O)NCCc3ccccc3)o2)cc1OC | 0.8 | -0.641
COC(=O)c1cc(NC(=O)N2c3ccccc3Sc3ccccc32)cc(C(=O)OC)c1 | 1.6 | ·
CN1CCC(N(C)C(=O)Nc2cccc3ccccc23)CC1 | 1.1 | -0.385
O=C(NCCN1C(=O)S/C(=C\c2cccnc2)C1=O)c1cccs1 | 2.9 | ·
COc1ccc(CN(Cc2cccs2)C(=O)c2ccccc2-n2cnnn2)cc1OC | 1.4 | ·
CCC(=O)N1CCc2cc(S(=O)(=O)CCC(=O)N3CCN(c4ccccc4)CC3)ccc21 | 2.9 | 0.0755
NC(=O)CSc1nnc(-c2c[nH]c3ccccc23)n1CC1CCCO1 (configuration not stated) | 1.8 | ·

Two entries picked at random from the list so far:
SMILES | Ab BasE inh | KSHV LANA nucl
C=C1C[C@]23C[C@@]1(O)CC[C@H]2[C@@]12C=C[C@H](O)[C@@](C)(C(=O)O1)[C@H]2[C@@H]3C(=O)O | -3.9 | 2.04
O=C(NCCN1C(=O)S/C(=C\c2cccnc2)C1=O)c1cccs1 | 2.9 | ·

(continued)
SMILES | Ab BasE inh | KSHV LANA nucl
NC(=O)c1c(Nc2nc3c(F)cccc3s2)sc2c1CCCC2 | -28.0 | 2.02
CCOc1cc2[nH]c(=O)n(CCCC(=O)NCCc3ccccc3)c(=O)c2cc1OCC | 0.3 | -1.58
CC1CCCC(NC(=O)CN2N=C(c3ccc(Cl)cc3)CCC2=O)C1C (configuration not stated) | 0.3 | -0.989
CCc1[nH]nc2c1C1(C(=O)Nc3ccc(Cl)cc31)C(C#N)=C(N)O2 (configuration not stated) | -2.5 | 1.25
Cc1cccc(N2C(=O)CC(c3cn(C)c4ccccc34)C2=O)c1 (configuration not stated) | -13.1 | 1.06
NC(=O)c1ncc(C(F)(F)F)cc1Cl | · | 1.01
C=CCn1c(=S)sc2c(Sc3nnc(-c4ccco4)o3)ncnc21 | 2.6 | ·
O=C1/C(=C/Nc2cccnc2)S(=O)(=O)N(Cc2ccccc2)c2ccsc21 | 0.5 | ·
Nn1c(SCC(=O)N2CCCc3ccccc32)nnc1-c1ccccc1 | -0.7 | 0.825
CSC(=CC(=O)c1ccc(Cl)cc1)SC | 1.8 | -0.248
O=C(O)c1ccc(CSc2nnc(COc3ccc(Cl)cc3Cl)o2)cc1 | 0.1 | ·
Cc1noc(C)c1CN1CCN(CC(=O)Nc2ccc(Cl)c(C(F)(F)F)c2)CC1 | 0.4 | ·

3 of the entries above in order of the KSHV LANA nucl value, low to high:
| Molecule | KSHV LANA nucl |
| --- | --- |
| Nn1c(SCC(=O)N2CCCc3ccccc32)nnc1-c1ccccc1 | 0.825 |
| NC(=O)c1ncc(C(F)(F)F)cc1Cl | 1.01 |
| Cc1cccc(N2C(=O)CC(c3cn(C)c4ccccc34)C2=O)c1 (configuration not stated) | 1.06 |

Next part.
SMILES | Ab BasE inh | KSHV LANA nucl
NC(=O)NC(=O)COc1ncnc2ccccc12 | -0.7 | ·
CC1CN(C(=O)NCc2ccccc2)c2ccccc2S1 (configuration not stated) | -1.1 | -0.396
O=C(Nc1ccccc1)c1ccc(F)cc1 | 1.4 | 0.866
CC1=C(C#N)C(=O)NC(C)(C)C1 | 0.4 | 0.185
N#CC(N)c1ccc(F)cc1 (configuration not stated) | 0.0 | ·
CCOC(=O)N1C/C(=C/c2ccsc2)C(=O)/C(=C\c2ccsc2)C1 | -1.4 | ·
COc1cccc(C(N)CC(=O)O)c1 (configuration not stated) | · | -0.735
COc1ccc(C(F)(F)F)cc1N | 3.5 | -0.232
CC(=O)Nc1ccc(NC(=O)CC2C(=O)Nc3ccccc3N2C(C)=O)cc1 (configuration not stated) | -1.6 | 0.562
Cc1ccc(O)c(C(=O)c2cnn(C(=O)Cc3csc(C)n3)c2)c1 | 2.3 | ·
CSc1ccc(CCNC(=O)C2CCCN(c3nnc(-n4cccc4)s3)C2)cc1 (configuration not stated) | 2.4 | 0.512
CCCCn1nc(C)c(C(=O)N2CCN(Cc3ccc(OC)c(F)c3)CC2)c1Cl | 0.9 | ·

An excerpt of these results, with values under each structure.
Results follow in this order: Ab BasE inh, KSHV LANA nucl
CSc1ccc(CCNC(=O)C2CCCN(c3nnc(-n4cccc4)s3)C2)cc1 (configuration not stated)
    2.4, 0.512
CC1=C(C#N)C(=O)NC(C)(C)C1
    0.4, 0.185
COc1cccc(C(N)CC(=O)O)c1 (configuration not stated)
    ·, -0.735
Cc1ccc(O)c(C(=O)c2cnn(C(=O)Cc3csc(C)n3)c2)c1
    2.3, ·
CC1CN(C(=O)NCc2ccccc2)c2ccccc2S1 (configuration not stated)
    -1.1, -0.396

The list goes on.
SMILES | Ab BasE inh | KSHV LANA nucl
Cc1cc(NS(=O)(=O)N2CCOCC2)no1 | -0.4 | -0.193
COCC(C)n1c(SCc2nc3ccccc3c(=O)[nH]2)nc2ccccc2c1=O (configuration not stated) | -0.9 | ·
Cc1cccc(N2CCN(C(=O)Nc3ccccc3F)CC2=O)c1C | -1.3 | -0.643
c1ccc(-c2csc(-c3ccc4c(c3)OCCO4)n2)cc1 | 1.3 | ·
O=C1CCCN1CCCNc1nc2c(S(=O)(=O)c3ccc(Br)cc3)nnn2c2ccccc12 | 3.0 | -0.622
COc1cc2c(cc1OC)CN(C(=O)/C=C/c1ccc(OCc3c(C)noc3C)c(OC)c1)CC2 | 0.8 | ·
CC(/C=C1\SC(N(C)c2ccc(O)cc2)=NC1=O)=C\c1ccccc1 | -3.5 | ·
O=c1[nH]c(CN2CCN(CC3CCCO3)CC2)nc2cc(-c3ccc(Cl)cc3)sc12 (configuration not stated) | 0.7 | ·
COc1ccc2[nH]c(=O)c(CN(C)S(=O)(=O)c3ccc(C)cc3)cc2c1 | 0.6 | -1.71
CCSc1nn2cc(-c3ccccc3Cl)nc2s1 | -1.0 | ·
Cc1cc(C)n(-c2cc(C(=O)O)ccc2C)n1 | -0.8 | -1.03
OCC(O)/C=N/Nc1nc(Nc2ccccc2)nc(N2CCCCC2)n1 (configuration not stated) | 2.9 | 0.866
CC1(C)c2ccccc2N2CC(=O)NC21/C=C/c1ccc(F)cc1 (configuration not stated) | 2.3 | ·
Cc1nn(C2CCS(=O)(=O)C2)c2ncc(C(=O)c3cc(F)ccc3O)cc12 (configuration not stated) | -8.2 | ·
CCN(CC)S(=O)(=O)c1ccc2c(c1)C(=O)c1cc(S(=O)(=O)N(CC)CC)ccc1-2 | -0.2 | 0.566
O=C(CSc1nc2ccccc2[nH]1)N/N=C/c1ccccc1O | 1.3 | -0.428
NCCSC(=S)NC1CCCCCCC1 | 0.5 | ·
CCCc1cc(=O)[nH]c(SCCSC)n1 | -1.0 | ·
CCN(CC(=O)NC1CCS(=O)(=O)C1)S(=O)(=O)c1ccccc1 (configuration not stated) | 0.4 | ·
CCOc1ccc(CN(C)C(=O)c2ccc3ccccc3n2)cc1 | 0.2 | ·
CCn1c(C=Nc2ccccc2)nc2ccccc21 | 0.8 | ·
COCCCNc1oc(-c2ccccc2Cl)nc1C#N | -1.6 | -0.986
Cc1cccc(-n2c(C)cc(CNC(=O)NC(C)C)c2C)c1 | -0.4 | ·
C=C(C)COc1c(Cl)cc(C#N)cc1OC | 0.1 | 0.274
NCC(O)c1ccc2ccccc2c1 (configuration not stated) | · | -0.211
COc1ccc(/C=N/n2cnnc2SC)cc1OC | 3.5 | -0.506
Cc1occc1-c1nnc(SCC(=O)N(CCc2ccccc2)Cc2ccccc2)n1N | 0.5 | ·
CCCC[C@@H](C=O)NC(=O)[C@H](CC(C)C)NC(=O)[C@H](CC(C)C)NC(C)=O | -0.4 | 0.116
COCCn1cnc2c1c(=O)n(CC(O)c1ccccc1)c(=O)n2CC(C)C (configuration not stated) | 1.5 | ·
Cc1[nH]n(C)c(=O)c1N=Nc1c(Cl)cc(C(F)(F)F)cc1Cl | 0.1 | -0.191
N#CSCCCOc1ccc2ccccc2c1 | 2.4 | -0.176
CCCCn1c(N)c(N2CCOCC2)c(=O)n(CC(=O)N2C(C)CCCC2C)c1=O (configuration not stated) | 2.2 | ·
COC(=O)c1cccc(NC(=O)c2ccccc2)c1 | 0.0 | -0.433
CCC(OC(=O)c1cc2sccc2n1C(C)C)C(=O)NCc1ccc(OC)cc1 (configuration not stated) | -0.2 | 0.244
COc1ccc(Br)cc1COC(=O)C1c2ccccc2Oc2ccccc21 | -0.3 | ·
Cc1ccc(C)c(OC2=NS(=O)(=O)c3ccccc32)c1 | -1.4 | 0.862
COc1ccccc1NC(=O)Cn1c(CN2CCCCC2)nc2ccccc2c1=O | -0.6 | 0.0545
NNC(=O)CNC(=O)c1ccc2c(c1)OCO2 | 3.1 | -0.157
O=c1[nH]cnc2ccc(Br)cc12 | 0.0 | -1.78
CC(C)CCNC(=O)c1cc2sccc2n1Cc1ccc(F)cc1 | -1.1 | -0.289
NS(=O)(=O)c1ccc(CCNCc2ccc3c(c2)OCO3)cc1 | -1.2 | -0.601
Cc1c(NC(=O)NCc2cccnc2)sc2nc3n(c(=O)c12)CCC(C)CC3 (configuration not stated) | 0.4 | 0.735
CCCSc1nsc(NC(=O)CN2C(=O)COc3ccccc32)n1 | -12.6 | ·
O=C1N/C(=N/S(=O)(=O)c2ccccc2)S/C1=C/c1ccccc1O | -2.6 | 2.55
c1ccc(CCNc2nc3ccccc3[nH]2)cc1 | -1.9 | -1.48
CCCCN(C(=S)Nc1ccc(C)cc1)C1CCN(C(C)=O)CC1 | -0.3 | 0.15
O=C(OCC(=O)N1CCCC1)c1ccc2ncsc2c1 | 0.0 | ·
CCCCN1C(=O)NC2NC(=O)NC21 (configuration not stated) | 1.4 | -0.0385
Cc1cc2nc(N3CCN(c4ccccc4)CC3)c3ccccc3n2n1 | 1.0 | ·
O=C(CC1Sc2ccccc2NC1=O)Nc1cccc(-c2nnc3n2CCCCC3)c1 (configuration not stated) | -1.7 | ·
O=C(CNS(=O)(=O)c1ccccc1)NCc1ccccn1 | 1.3 | 0.727
O=C(CCc1ccccc1)OCCN1CCCC1=O | -0.7 | ·
C=CCn1c(SCC(=O)O)nnc1-c1ccc(OC)c(OC)c1 | -2.2 | 2.3
O=C(C1CCCN(S(=O)(=O)c2cccc3nonc23)C1)N1CCc2ccccc2C1 (configuration not stated) | -6.7 | 1.26
COc1ccc(COC(=O)N/N=C/c2ccco2)cc1 | 0.8 | 0.148
O=C(CSc1ncccn1)N1CCN(S(=O)(=O)c2ccc(Cl)cc2)CC1 | -0.6 | ·
Cc1c(C(=O)N2CCCC2)oc2c1-c1nn(CC(=O)O)cc1CC2 | 2.4 | 0.476
Cc1ccccc1NC(NC(=O)c1ccco1)C(=O)c1ccccc1 (configuration not stated) | -1.4 | ·
CC(OC(=O)C1COc2ccccc2O1)C(=O)N1CCc2ccccc21 (configuration not stated) | -0.2 | ·
Cc1cccc(NC(=O)CN2N=C(c3ccccc3)CCC2=O)c1C | -1.4 | 0.865
Additional records follow.
SMILES | Ab BasE inh | KSHV LANA nucl
COc1ccc2c(c1)c1nc(SC)n(CCO)c(=O)c1n2C | 0.9 | -0.196
CCc1ccc2c(CN3CCN(S(=O)(=O)c4ccc5c(c4)OCCO5)CC3)cc(=O)oc2c1 | 1.7 | ·
C=CCn1cnnc1SC(C)C(=O)N(CC)c1cccc2ccccc12 (configuration not stated) | 0.3 | ·
CN(C(=O)c1cc2ccc3cccnc3c2[nH]1)c1ccccc1 | -11.9 | ·
Cc1nnc(SC(C)C(=O)C23CC4CC(CC(C4)C2)C3)n1C (configuration not stated) | 2.7 | ·
Cc1cc(C)c2c(n1)SCC(=O)N2CCCC(=O)NC(C)C | 1.3 | -0.394
Cc1ccc(S(=O)(=O)NC(=O)OCC2CN(Cc3ccccc3)CCO2)cc1 (configuration not stated) | -3.3 | ·
O=C(/C(=N\O)n1cncn1)c1ccccc1Cl | 0.2 | ·
Cc1cc2ncn(S(=O)(=O)c3ccc(S(=O)(=O)NCC4CCCO4)cc3)c2cc1C (configuration not stated) | 2.2 | 0.62
NC(N)=NC(N)=Nc1ccc2ccccc2c1 | -0.2 | -0.934
O=C(O)c1cccc(S(=O)(=O)N2c3cccc4cccc(c34)S2(=O)=O)c1 | 0.0 | ·
CC1(C)CC(=O)C=C(N2CCN(c3ccccc3F)CC2)C1 | 0.1 | ·
O=C(OCc1cc(=O)n2ccsc2n1)c1cc(-c2cccs2)nn1-c1ccccc1 | -0.3 | ·
CCc1ccc(OCCCC(N)=O)cc1 | -2.6 | 0.714
O=CN1CCN(C(=S)Nc2ccc(Cl)cc2Cl)CC1 | 0.6 | ·
COc1cccc(-c2cc(C(F)(F)F)nc(N3CCCCC3)n2)c1 | -3.3 | 1.04
Cn1c(=O)c(C(=O)NCCN2CCNCC2)c(O)c2ccccc21 | -0.3 | 0.0465

The list is partial. The share of hits here may be higher or lower than overall.
